Compound activity as filed in PubChem BioAssay.
Rango release inh: inhibition of RanGTP-driven Rango-importin beta dissociation. 0.071% of 340,000 active. AID 540253. O95149+P62826. Potency, µM (titrated, usually from 46.1 µM), without a hit: at the top dose activity change, negative = inhibition. Biochemical FRET Rango-importin beta, RanGTP-induced dissociation; active means falling FRET ratio curve, often poorly fitted, with flat reads before Ran was added; inconclusive means other falling curves, or compound fluorescence or quenching; inactive means flat or rising ratio curve;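 further: potency means the concentration at half of the fitted maximal effect; % of control where 0% means no effect; nearly all actives have a fitted effect of over 45% in size; -100% = wells without RanGTP and RCC1; the record marks most hits as doubtful in a second field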
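Two FRET readings bracket the reaction: one 5 min after compound meets Rango–importin beta, another 45 min after RanGTP-RCC1 (0.6 uM Ran, 0.2 uM RCC1, 2 mM GTP) is added. Only the second defines inhibition.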
GLA inh pH 4.5: inhibitors of human alpha-galactosidase A at pH 4.5; AID 1467; P06280; activity change, negative = inhibition, % at 105 µM; purified enzyme, 4-MU-alpha-Gal fluorescence, pH 4.5; 230,000 tested, under 10 active; inconclusive = small, poorly fitted or top-dose-only inhibition, or a rising curve; inactive = flat fitted curve, though single readings scatter; no compound was filed as active;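 further: 0% = full activity with enzyme and -100% = basal without enzyme; dose as in the result columns while the protocol names 77 µM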
Rango complex inh: prevents formation of the Rango-importin beta complex. Q14974. Rango CFP/YFP FRET sensor + importin beta, 45 min. Potency, µM (top dose mostly 92.2 µM), without a hit: at the highest dose inhibition of complex formation. 0.031% of 340,000 active. AID 540263; active = rising FRET ratio curve, often small or poorly fitted; inconclusive = mostly compound fluorescence or quenching in the first reads; inactive = flat curves in all reads;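 further: potency means the concentration at half of the fitted maximal effect; 0% = DMSO wells and 100% = buffer wells lacking importin beta; nearly all actives have a fitted effect of over 15% in size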
Target sequence (Q14974 whole entry, looked up): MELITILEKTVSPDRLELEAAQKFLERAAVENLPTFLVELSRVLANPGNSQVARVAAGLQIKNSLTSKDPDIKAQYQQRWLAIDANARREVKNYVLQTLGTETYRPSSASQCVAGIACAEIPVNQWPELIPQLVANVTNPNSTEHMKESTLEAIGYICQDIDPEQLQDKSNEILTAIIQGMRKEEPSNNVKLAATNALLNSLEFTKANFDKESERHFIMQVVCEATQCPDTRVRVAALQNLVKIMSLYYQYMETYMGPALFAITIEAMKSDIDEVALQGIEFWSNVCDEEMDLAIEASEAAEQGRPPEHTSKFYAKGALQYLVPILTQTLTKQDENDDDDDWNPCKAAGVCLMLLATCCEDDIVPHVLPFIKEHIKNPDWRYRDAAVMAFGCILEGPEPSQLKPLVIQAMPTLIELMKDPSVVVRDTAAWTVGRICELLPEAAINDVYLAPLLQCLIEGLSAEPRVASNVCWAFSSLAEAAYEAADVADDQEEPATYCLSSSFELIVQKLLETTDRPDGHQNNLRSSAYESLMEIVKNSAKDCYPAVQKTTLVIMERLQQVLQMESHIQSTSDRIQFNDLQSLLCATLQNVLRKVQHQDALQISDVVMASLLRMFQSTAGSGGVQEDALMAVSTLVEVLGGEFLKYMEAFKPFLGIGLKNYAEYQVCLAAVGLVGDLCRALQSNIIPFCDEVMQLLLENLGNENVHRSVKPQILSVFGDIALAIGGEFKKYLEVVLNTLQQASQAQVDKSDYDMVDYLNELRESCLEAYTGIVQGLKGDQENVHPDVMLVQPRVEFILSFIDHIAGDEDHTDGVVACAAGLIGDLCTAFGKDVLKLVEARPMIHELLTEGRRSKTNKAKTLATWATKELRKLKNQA
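FRET biosensor (snurportin 1 IBB flanked by EYFP and cerulean), 50 nM, with compound 5 min, then 0.125 microM importin beta in PBS, 1 mM DTT, 0.02% Tween-20, 0.1% BSA. CFP/YFP ratio read after 45 min at room temperature; pre-read flags interference.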
miR-21 reporter: raises the signal of a miR-21 reporter. HeLa miR-21 FLuc reporter, luciferase, 48 h. Potency, µM (titrated, usually from 38.3 µM), inactives show top-dose reporter change, positive = more light. 340,000 tested, under 10 active. AID 2288; active = well fitted rising curve with a large enough effect; inconclusive = small, poorly fitted or top-dose-only effect; inactive = no such curve, though single readings can be large or run the other way;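 further: % of control where 0% means no effect; miR-21 action dims this reporter so a rising signal means less miR-21 action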
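HeLa miR-21-FLuc reporter line, endogenous miR-21; 2000 cells/well in DMEM/10% FBS; compound titration up to ~40uM final, 48 h, 37 degree Celsius; luciferase detection reagent, 15 min lysis, CCD luminescence.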
* marks the source's active call; other numbers are inactive results; ? = inconclusive; / = not tested or not shown; & = joins results of further samples. A portion of the library; rates above refer to the full screens.

SMILES	Rango release inh	GLA inh pH 4.5	Rango complex inh	miR-21 reporter
C/C(=N\Nc1cccc2cccnc12)c1ccccn1	-8%	-2	0.6%	-44%
COc1ccc(NC(=O)CN(C)C(=O)Cn2c(=O)oc3ccccc32)cc1	0%	/	-2.9%	/
O=C(O)C(c1ccccc1)C(O)C1CCCC1 (stereo not given)	2%	/	-3.8%	/
CC(C)OC(=O)c1ccc(COC(=O)CNC(=O)c2ccco2)cc1	-6%	/	1.1%	-1%
O=C(O)CCNS(=O)(=O)c1cccc2nsnc12	-9%	/	0.2%	/
COc1ccc(C(=O)NC(NC(=S)Nc2ccc(S(N)(=O)=O)cc2)C(Cl)(Cl)Cl)cc1 (stereo not given)	6%	-3	0.1%	0%
O=C(Nc1ccc(Br)cc1F)C1CCCO1 (stereo not given)	-6%	8	-1.3%	-14%
Cc1ccc(S(=O)(=O)N2[C@@H](c3ccc(Br)cc3)C(C(=O)O)=CC[C@H]2c2cccs2)cc1	0%	/	0.8%	/
CCC(C)c1ccccc1NC(=O)COC(=O)c1ccc(C)c(NC(=O)c2ccco2)c1 (stereo not given)	34%	3	3.5%	-7%
CCc1nnc(NC(=O)CSc2nnc(CSc3nc(C)cc(C)n3)n2C)s1	3%	0	0.6%	-2%
COc1cccc(C2CC(c3ccc(Cl)cc3)n3nc(N)nc3N2)c1 (stereo not given)	1%	-21	8.8%	-3%
O=C(COC(=O)COc1ccccc1)Nc1ccc(Br)cc1F	-18%	/	4.4%	/
COc1ccc([N+](=O)[O-])cc1N(CC(O)CN(C)C)S(=O)(=O)c1ccc(C)cc1 (stereo not given)	-6%	6	2.0%	9%
CC1(C)CC(=O)C(C(N)=NC(=O)c2ccc([N+](=O)[O-])cc2)=C(O)C1	1%	3	0.6%	-1%
O=C(CSc1nccc(=O)[nH]1)c1ccccc1Br	-4%	7	2.5%	-11%
Cc1ccc(S(=O)(=O)N2[C@@H](c3ccc(Cl)cc3)C(C(=O)O)=CC[C@H]2c2ccc(Cl)cc2)cc1	-9%	/	1.5%	/
COc1cccc(OC)c1NC(=O)NC(=O)c1c(OC)c(Br)cc([N+](=O)[O-])c1OC	-8%	-18	0.2%	0%
CCc1nnc(NC(=O)CSc2nccn2-c2cccc(C)c2C)s1	-9%	2	-2.5%	27%
CCOC(=O)C1(Cc2ccccc2Cl)CCN(C(=O)c2cc(C)on2)CC1	-2%	/	-2.1%	-47%
O=C(c1ccc(C(F)(F)F)cc1)N1CCC(=O)N(C(COCc2ccc(C(F)(F)F)cc2)Cc2ccccc2)CC1 (stereo not given)	22%	8	-1.5%	28%
CCOC(=O)c1cc2sccc2n1CC(=O)Nc1ccc(OC)cc1OC	1%	0	-3.1%	-4%
O=C(NNC(=O)c1csc(N2CCOCC2)n1)c1ccc(=O)[nH]c1	6%	/	3.8%	/
COc1ccc(OCCC(=O)OCC(=O)NC2CCCCC2)cc1	9%	/	0.3%	/
CCc1ccnc(NC(=O)NS(=O)(=O)c2ccc(C)cc2)c1	1%	-8	4.7%	-26%
O=C1CC(=O)Nc2cc(S(=O)(=O)N3CCN(c4ccc([N+](=O)[O-])cc4)CC3)ccc2N1	?	/	0.3%	6%
CC(NC(=O)CN(C)CC(=O)Nc1ccccc1Br)c1ccccc1 (stereo not given)	-8%	/	-1.7%	/
CC(C)(C)OC(=O)NCCCC[C@H](NC(=O)c1nc[nH]c1C(=O)NCC(=O)OCc1ccccc1)C(=O)OC(C)(C)C	9%	/	-3.2%	8%
N#Cc1c(N)oc(-c2cccs2)c1-c1cccs1	7%	-2	-1.8%	-6%
CSc1nnc(N2C(=O)C(O)=C(C(=O)c3ccco3)C2c2ccc(F)cc2)s1 (stereo not given)	?	/	-0.2%	-16%
CN1CCN(c2nc(-c3cccs3)nc3ccccc23)CC1	?	9	0.5%	-14%
O=C(CN1CCN(c2cccc(Cl)c2)CC1)Nc1nccs1	2%	-1	-3.6%	1%
O=C(NCCCCCCCN1CCCCCCC1)C(C1CCCCC1)C1CCCCC1	?	/	3.5%	/
O=C(OCC(=O)N1CCc2ccccc2C1)c1cccc([N+](=O)[O-])c1	4%	6	1.3%	-2%
O=C(OCC(=O)N1CCN(c2ccccc2)CC1)c1cc(Br)ccc1Cl	19%	/	-0.5%	/
C/C(=N\NC(=O)Cc1cccn1C)c1cccs1	15%	3	0.2%	-8%
COCCNC(=O)C(=O)c1cc(C)n(-c2ccc([N+](=O)[O-])cc2)c1C	1%	-11	-2.7%	-9%
Cc1ccc(S(=O)(=O)N2[C@@H](c3ccccc3F)C(C(=O)O)=CC[C@H]2c2ccc3c(c2)OCO3)cc1	-24%	/	-2.6%	/
Cc1c(C(=O)NC2CC(=O)N(c3ccc4c(c3)OCCO4)C2)cccc1[N+](=O)[O-] (stereo not given)	30%	/	2.4%	/
C=CCn1c(-c2ccc([N+](=O)[O-])cc2)n[nH]c1=S	3%	4	-3.2%	-2%
O=C(O)[C@@H]1CCCN1C(=O)CCc1c[nH]c2ccccc12	?	/	1.5%	-5%

Brought forward from above: 2 compounds, then new ones.
SMILES	Rango release inh	GLA inh pH 4.5	Rango complex inh	miR-21 reporter
C=CCn1c(-c2ccc([N+](=O)[O-])cc2)n[nH]c1=S	3%	4	-3.2%	-2%
O=C(O)[C@@H]1CCCN1C(=O)CCc1c[nH]c2ccccc12	?	/	1.5%	-5%
Cc1cc(C)cc(C(=O)NCC(=O)OCC(=O)Nc2cccnc2Cl)c1	3%	-3	6.2%	-3%
O=C(c1cccs1)N1CCN(c2cccc(Cl)c2)CC1	-19%	/	4.8%	-5%
COC(=O)c1sccc1NC(=O)c1cccnc1	20%	8	1.2%	-8%
CC(NC(=O)CCNS(=O)(=O)c1cccc2nonc12)c1ccccc1 (stereo not given)	-12%	/	-0.7%	-2%
O=C(NC1=NCCS1)C1CCCCC1	-7%	-12	-5.4%	-4%
Cc1cc(NS(=O)(=O)c2ccc(-c3ccccc3)cc2)no1	20%	-1	-1.7%	-4%
Cc1ccc(C(=O)Nc2cccc(O)c2)cc1S(=O)(=O)N1CCCCCC1	-8%	/	0.9%	-34%&-2%
O=C1C(Cc2ccc(O)cc2)NC(=S)N1c1ccccc1 (stereo not given)	-8%	-8	-0.1%	0%
COc1ccc(CC(=O)N2CCCC(C)C2)cc1 (stereo not given)	1%	-9	0.2%	-12%
Cc1ccc(C)n1-c1ccc(C(=O)/C=C/N(C)C)cc1	?	-4	?	-1%
Cc1ccc(CCNC(=O)c2sc3nc4n(c(=O)c3c2C)CCC4)cc1	1%	/	-3.6%	-13%
O=C(CSc1ccc(Cl)cc1)N1CCN(c2ccc(Cl)cc2[N+](=O)[O-])CC1	10%	2	-1.0%	-6%
CN(C)c1nc(OCCNC(=O)COc2ccccc2Cl)nc(N(C)C)n1	0%	1	2.7%	2%
O=C(c1cnc(N2CCN(c3ncccn3)CC2)c2ccccc12)N1CCN(c2ncccn2)CC1	11%	-1	-2.0%	29%
O=C(CSc1nnc(CNC(=O)c2ccco2)o1)Nc1ccccc1F	-1%	/	-2.5%	-1%
Cc1ccc(/C=C2/CNC/C(=C/c3ccc(C)cc3)C2=O)cc1	6%	/	4.3%	/
COc1cccc(-c2cc3nc(-c4ccccc4)cc(N4CCCC(O)C4)n3n2)c1 (stereo not given)	-28%	12	?	16%
CC(C)CN(C(=O)CCC1CCCCC1)c1c(N)n(CC(C)C)c(=O)[nH]c1=O	-3%	/	-0.2%	/
Cc1ccc2[nH]cc(CCNC(=O)c3ccc([N+](=O)[O-])cc3)c2c1	-5%	1	0.1%	-3%
CC(C)C(OC(=O)c1cc2occc2n1C)C(=O)NCc1ccc2c(c1)OCO2 (stereo not given)	-3%	8	3.5%	-9%

Looked up above:
GLA inh pH 4.5, CN(C)c1nc(OCCNC(=O)COc2ccccc2Cl)nc(N(C)C)n1 : 1
Rango release inh, CC(C)CN(C(=O)CCC1CCCCC1)c1c(N)n(CC(C)C)c(=O)[nH]c1=O : -3%
miR-21 reporter, CC(C)C(OC(=O)c1cc2occc2n1C)C(=O)NCc1ccc2c(c1)OCO2 (stereo not given) : -9%
Rango complex inh, O=C(CSc1ccc(Cl)cc1)N1CCN(c2ccc(Cl)cc2[N+](=O)[O-])CC1 : -1.0%

Not a retest: entries from further up.
SMILES	Rango release inh	GLA inh pH 4.5	Rango complex inh	miR-21 reporter
O=C(c1cnc(N2CCN(c3ncccn3)CC2)c2ccccc12)N1CCN(c2ncccn2)CC1	11%	-1	-2.0%	29%
O=C(CSc1nnc(CNC(=O)c2ccco2)o1)Nc1ccccc1F	-1%	/	-2.5%	-1%

The listing continues.
SMILES	Rango release inh	GLA inh pH 4.5	Rango complex inh	miR-21 reporter
Cc1ccc(OCC(=O)Nc2ccc(NC(=O)c3ccccc3)c(C)c2)cc1	5%	/	-1.1%	0%
CCOc1ccc(NS(=O)(=O)c2cc(OC)ccc2OC)cc1	-7%	-1	2.4%	1%
CCN(CC)C(=O)c1ccc(COc2ccccc2Cl)o1	2%	/	1.7%	-32%
CC(=O)Nc1ccc2nc(-c3cccs3)[nH]c2c1	-7%	1	-4.9%	-85%
CCC(=O)NCCc1nc2cc(NC(=O)c3ccc(F)cc3)ccc2n1C	7%	/	0.4%	-44%
CCOc1cc(/C=C2\C(=O)N(c3nc(-c4ccc(Br)cc4)cs3)N=C2c2ccccc2)ccc1O	1%	-20	-3.1%	5%
Cc1ccc(NC(=O)C2CCN(S(=O)(=O)c3cccc4cccnc34)CC2)nc1	-3%	-4	0.3%	9%
COc1ccc2cc(CN(CC3CCCO3)S(=O)(=O)c3ccc(C(C)=O)cc3)c(=O)[nH]c2c1 (stereo not given)	0%	4	-2.8%	-28%
O=C(/C=C/c1ccc(S(=O)(=O)N2CCOCC2)cc1)NCc1ccccc1Cl	-8%	-4	4.2%	-1%
O=C(CSc1nc2c(c(=O)n1-c1ccc(Br)cc1)SCC2)NCC1CCCO1 (stereo not given)	-11%	5	-1.3%	-12%

Compound profiles, as listed above. Order of values: Rango release inh	GLA inh pH 4.5	Rango complex inh	miR-21 reporter
`CCOC(=O)C1(Cc2ccccc2Cl)CCN(C(=O)c2cc(C)on2)CC1` reads -2%	/	-2.1%	-47%
`C/C(=N\Nc1cccc2cccnc12)c1ccccn1` reads -8%	-2	0.6%	-44%
`Cc1ccc(OCC(=O)Nc2ccc(NC(=O)c3ccccc3)c(C)c2)cc1` reads 5%	/	-1.1%	0%
`O=C(c1cccs1)N1CCN(c2cccc(Cl)c2)CC1` reads -19%	/	4.8%	-5%
`O=C(CSc1nc2c(c(=O)n1-c1ccc(Br)cc1)SCC2)NCC1CCCO1` (stereo not given) reads -11%	5	-1.3%	-12%

The list continues.
SMILES	Rango release inh	GLA inh pH 4.5	Rango complex inh	miR-21 reporter
CCC1(C)Cc2ccccc2-c2c1c(=O)n(-c1ccc(C)cc1)c1nnnn21 (stereo not given)	-9%	6	3.8%	-3%
COc1ccc(-c2noc(CNS(=O)(=O)c3ccc(NC(C)=O)cc3)n2)cc1	-4%	/	6.2%	1%
O=C(Nc1ccccc1N1CCOCC1)c1csc2c1CCCC2	9%	3	0.9%	-15%
CC(C)CN1C(=O)C(=O)N(CC(=O)Nc2cc(Cl)ccc2Oc2ccccc2)C1=O	-13%	-4	-4.9%	-8%
O=C(Nc1ccc(F)cc1)c1cc2ccccc2o1	-12%	/	-3.2%	-15%
COc1ccc2oc(C(=O)Nc3ccccc3N3CCOCC3)c(C)c2c1	-10%	/	?	/
c1cc2c(cnc3cscc32)s1	2%	7	-1.4%	-11%
O=C(OCCCCOC(=O)c1ccccc1)c1ccccc1	0%	-4	6.6%	-4%
CCN(CC(=O)NCc1ccc(Cl)cc1)C(=O)Cc1ccc(OC)cc1	-8%	/	-2.6%	0%
Cn1nccc1C(=O)N1CCOCC1	-4%	/	-0.1%	2%
O=C1CCCN1CC(=O)N1CCCC(N2CCN(c3cccc(Cl)c3)CC2)C1 (stereo not given)	5%	/	2.2%	-14%
CCNc1nc(NC(C)(C)C)nc(Oc2ccc(=O)n(-c3ccccc3)n2)n1	14%	-6	0.5%	-2%&-9%
O=C(CSc1n[nH]c(-c2cccnc2)n1)Nc1ccc(Cl)cc1	-1%	/	-1.6%	-3%
CCN(CC)CC#CCC1(O)c2ccccc2-c2ccccc21	12%	3	0.7%	-4%
CC(C(=O)NCc1cccs1)N1C(=O)c2ccccc2C1=O (stereo not given)	2%	0	-1.6%	-5%
